# Bioassay records as filed in PubChem BioAssay.
# VACV mCherry inh – inhibitors of vaccinia virus infection (mCherry reporter signal); Vaccinia virus mCherry reporter infection, fluorescence; about a quarter of the inactives have no number; Potency, µM (titrated, usually from 36.5 µM), for inactives: at the highest dose activity change, negative = inhibition, actives largely listed as inhibitors; hit rate 0.63% among 310,000; AID 720579; active = well fitted inhibition curve with a large enough effect; inconclusive = small, poorly fitted or top-dose-only effect; inactive = no such curve, though single readings can be large or run the other way; tested in A549 cells; note: nearly all actives have a fitted effect of over 35% in size; inactives centre near -10
# VACV Venus inh – vaccinia inhibition (Venus reporter); hit rate 0.46% among 330,000; Vaccinia virus Venus reporter expression, fluorescence; Potency, µM (top dose mostly 36.5 µM), for the others: at the highest dose activity change, negative = inhibition, most hits filed as inhibitors; active means well fitted inhibition curve with a large enough effect; inconclusive means small, poorly fitted or top-dose-only effect; inactive means no such curve, though single readings can be large or run the other way; tested in A549 cells; note: nearly all actives have a fitted effect of over 30% in size; inactives centre near -10
# * = called active by the depositor; i = inactive; ? = inconclusive; . = not tested or not shown; & = joins results of further samples. % is set by controls: 0 for no effect and ±100 for the full control effect; potency is the fitted concentration of half-maximal effect.
# Each structure is followed by: VACV mCherry inh, VACV Venus inh
- CSc1ccccc1OCc1cc(C(=O)N2CCN(c3ccccc3)CC2C)no1 (configuration not stated)
    -9.4%, -25.7%
- O=C(NC(=S)NC1CCS(=O)(=O)C1)c1cccs1 (configuration not stated)
    -17.3%, -3.2%
- C/C(=N\NC(=O)c1ccc(N(C)C)cc1)c1ccc(C)cc1C
    -11.3%, -14.6%
- O=C(COc1ccc(Cl)cc1Cl)Nc1ccc(CN2CCCCC2)cc1
    i, -15.9%
- CC(Sc1nc(=O)cc(N)n1CCc1ccccc1)C(=O)Nc1ccc(Cl)cc1 (configuration not stated)
    -12.6%, -12.0%
- O=C(c1ccc(-c2nc3ccccc3s2)s1)N1CCOCC1
    i, -13.5%
- COc1cc(OC)c(-c2c3cc(O)c(=O)cc-3oc3cc(O)c(O)cc23)cc1OC
    ., i
- CN(Cc1ccccc1)C1CCN(Cc2ccccc2[N+](=O)[O-])CC1
    -18.6%, -9.4%
- CCC/C=C1/CCCOC(C(=O)NCc2ccc(C)o2)(C(F)(F)F)C1 (configuration not stated)
    ?, -19.6%
- CN(C)c1ccc(Nc2nc(-c3cccnc3)cs2)cc1
    -9.5%, -14.7%
- O=C(/C=C/c1ccccc1)Nc1cccc(C(=O)N2CCCC2)c1
    -6.1%, -20.2%
- CCN(CC)C(=O)Cn1cc(C(=O)C(=O)NCc2cccs2)c2ccccc21
    i, -3.6%
- CSc1ccc(S(=O)(=O)N(C)Cc2ccccc2)cc1
    -22.5%, -14.5%
- c1cn(CC2(Cn3ccnc3)COC2)cn1
    -1.5%, -3.9%
- Cc1ccc2nc(Nc3ccccc3)c(/C=N/O)c(=O)n2c1
    ., ?
- COc1cccc(OC)c1C(=O)NNC(=O)c1cccnc1
    -13.3%, -8.9%
- O=C(O)c1ccc(CSc2nnc(-c3ccco3)o2)cc1
    -13.4%, -7.6%
- CC1=CC(C)(C)NC(=S)N1c1ccc(Cl)cc1
    i, -16.7%
- O=[N+]([O-])c1cc(-c2nc(-c3ccncc3)no2)cc([N+](=O)[O-])c1
    -24.9%, -20.5%
- COc1cc(OC)c(OC)cc1/C=C/c1nc2cc3ccccc3cc2c(=O)n1-c1ccc(F)cc1F
    -6.5%, ?
- CCN(CC)CCNc1ncnc2c1cnn2-c1cc(Cl)ccc1C
    -12.1%, -10.6%
- Cc1ccc(NS(=O)(=O)c2cc(C(=O)NCc3ccccn3)ccc2Cl)cc1
    -5.8%, -3.3%
- COc1cc(C2c3cc4c(c(O)c3CC3COC(=O)C32)OCO4)cc(OC)c1O (configuration not stated)
    ?, ?
- O=C1N[C@@H](Cc2c[nH]c3ccccc23)COC(=O)[C@@H](Cc2ccc(F)cc2)CC/C=C/C[C@@H]1CC(=O)N(CCO)Cc1ccccc1
    ?, ?
- C[C@H](CO)N1C[C@H](C)[C@@H](CN(C)C(=O)Nc2cccc3ccccc23)OCCCC[C@H](C)Oc2ccc(NS(=O)(=O)c3cn(C)cn3)cc2C1=O
    i, 3.6%
- Fc1ccc(Nc2cccc3nccnc23)cc1
    i, -14.0%
- COc1ccc(OCc2nc3ccc(S(=O)(=O)Nc4ccccc4Cl)cc3[nH]2)cc1
    ?, ?
- CCc1cccc(C)c1NC(=O)CSc1nnc(Cc2csc(C)n2)o1
    i, -14.8%
- Cc1nnc2c(NC(C)C)nc3ccccc3n12
    ., -12.7%
- CC1(C(=O)NS(=O)(=O)Cc2cccc(Cl)c2)CCN1C(=O)Cc1cccs1 (configuration not stated)
    4.6%, -1.8%

# Next records follow.
# Each structure is followed by: VACV mCherry inh, VACV Venus inh
- CCOC(=O)c1ccc(N2C(=O)c3[nH]nc(-c4ccccc4)c3C2c2ccc(C(C)C)cc2)cc1 (configuration not stated)
    ?, ?
- O=C(CSCC(=O)Nc1ccc2ccccc2c1)NCc1ccccc1
    -12.3%, -13.4%
- O=C(Nc1ccc(F)cc1)c1cccnc1Oc1ccccc1
    -3.3%, -0.4%
- Cc1cccc(OCCNc2ncccc2[N+](=O)[O-])c1
    ?, ?
- C[C@]12c3[nH]c4ccc(Cl)cc4c3CCN1C(=O)[C@@H](CC(=O)NCc1ccco1)C[C@@H]2C(=O)N1CCOCC1
    i, ?
- COc1ccc(CN2CCNC(=O)C2CC(=O)NCc2csc(C(C)C)n2)c(OC)c1 (configuration not stated)
    -25.6%, -13.7%
- COc1cccc(C(C)NC(=O)c2c(F)cccc2Cl)c1 (configuration not stated)
    i, -2.4%
- CCCOc1ccc(CNC(=O)c2ccc(C)c(-n3c(C)nc4cccnc43)c2)cc1
    -3.5%, -7.2%
- O=C1CCN(C(=O)CSc2ccc(Cl)cc2)N1
    -13.2%, -0.2%
- C=C(Cl)COC(=O)C1C2C=CC(C2)C1C(=O)O (configuration not stated)
    ., -4.2%
- CCc1nc2ccc(C(=O)N3CCN(C(=O)c4ccco4)CC3)cn2c1N(C)C(=O)C1CCCCC1
    i, -5.1%
- Clc1ccc(OCCCCSc2ncccn2)cc1
    -13.5%, -19.6%
- Cc1ccc(C(=O)OCC(=O)NC2CCCC2)cc1C
    -6.5%, -0.8%
- COc1c(OC2OC(C(=O)O)C(O)C(O)C2O)cc(O)c2c(=O)cc(-c3ccccc3)oc12 (configuration not stated)
    -11.4%, -7.2%
- CCCCC(=O)N(C)c1c(C)nc2ccc(C(=O)Nc3cccc(OC)c3)cn12
    i, 0.0%
- NS(=O)(=O)c1ccc(CCNC(=O)c2cc(=O)[nH]c3ccccc23)cc1
    i, -0.5%
- CCN(CC)C(=O)c1c(-c2ccccc2)c(-c2ccccc2)nn(C)c1=O
    3.6%, -0.7%
- Cc1ccc(Nc2nc(N)nc(N)c2N=O)cc1C
    -7.5%, 7.2%
- CCOC(=O)Nc1ccc2c(COC(=O)CNS(=O)(=O)c3cccc(Br)c3)cc(=O)oc2c1
    -14.9%, -9.9%
- Cc1oc(-c2ccccc2F)nc1CS(=O)CC(=O)NCc1cccs1 (configuration not stated)
    -13.7%, -1.8%
- NC(=O)CS(=O)(=O)c1nc2ccccc2n1Cc1ccccn1
    -9.4%, -3.8%
- COc1ccc(-c2noc(CCC(=O)N3CCN(c4ccc(Br)cc4)CC3)n2)cc1
    i, -16.7%
- CCCN(C(=O)COc1ccc(Cl)cc1Cl)c1c(N)n(Cc2ccccc2)c(=O)[nH]c1=O
    i, -29.3%
- CCc1ccccc1NC(=O)C1CCCN(c2cnccn2)C1 (configuration not stated)
    -3.1%, -2.8%
- O=C1CC(c2ccccc2)CC(O)=C1C=NCc1ccccc1Cl (configuration not stated)
    ?, ?
- O=C(NC(=S)NCc1ccc2c(c1)OCO2)c1ccccc1
    -14.6%, -5.9%
- CN(C)c1ccnc(SCc2ccccc2Cl)c1C#N
    -9.3%, -3.2%
- O=C(O)c1ccccc1N/C=C\[N+](=O)[O-]
    -24.9%, 0.6%
- COc1cccc(OCc2cc(=O)n3cc(C)sc3n2)c1
    -6.2%, -6.9%
- COc1ccccc1N1CCN(/N=C/c2ccc(OC)c(OC)c2OC)CC1
    -4.6%, -11.8%

# Remaining list, next part:
# Each structure is followed by: VACV mCherry inh, VACV Venus inh
- Cn1nccc1C(=O)Nc1sc2c(c1C(N)=O)CCCC2
    -0.9%, -14.0%
- COc1ccc(C(=O)NC(C)c2nnc(SCC(=O)NC3CCCC3)n2C)cc1 (configuration not stated)
    ?, -2.1%
- COc1ccc(-c2cnc3c(NC=O)cc(-c4ccoc4)cn23)cc1OC
    -20.3%, -21.3%
- COc1ccc(CCNC(c2ccc(F)cc2)c2nnc(-c3ccccc3Cl)o2)cc1OC (configuration not stated)
    -12.6%, -12.2%
- O=C(C1CCCO1)N1CCN(C(=S)Nc2ccccc2F)CC1 (configuration not stated)
    -13.5%, -2.8%
- COc1cc(C2Nc3ccccc3C(=O)N2Cc2ccco2)ccc1O (configuration not stated)
    -20.8%, -5.3%
- O=C(CC1C(=O)NCCN1Cc1cccc(F)c1)NCCCCCN1CCOCC1 (configuration not stated)
    -9.8%, -14.9%
- O=C1CCCC(O)=C1N=Nc1ccc(Cl)c(Cl)c1
    -1.7%, -5.1%
- CC(=O)Oc1ccccc1C(=O)NC(C)CCc1ccccc1 (configuration not stated)
    -7.6%, -26.1%
- CCOc1cccc(CNCc2cccnc2)c1OCc1ccccc1
    -5.6%, -0.6%
- Cc1ccc(S(=O)(=O)N2CC(=O)Nc3ccccc32)c(C)c1NS(C)(=O)=O
    -12.2%, -15.3%
- Cc1nc(C)n(CC(=O)NCC2Cc3cc(-c4cccc(OC(F)(F)F)c4)ccc3O2)n1 (configuration not stated)
    -2.3%, -6.0%
- CC(=O)N1CCCc2cc(S(=O)(=O)N3CCCCC3)ccc21
    0.9%, -0.8%
- CC(C)(C)n1nnnc1C(c1cccs1)N1CCN(Cc2ccc3c(c2)OCO3)CC1 (configuration not stated)
    -13.5%, -6.6%
- COc1ccc(NC(=O)c2ccccc2N(Cc2ccccc2)S(C)(=O)=O)cc1OC
    -11.3%, -13.2%
- COC(=O)C1=C(c2ccc(OC)c(OC)c2)C[C@@H]2CC[C@H]1N2C(=O)NCCOc1ccccc1
    -16.1%, -15.0%
- CCOC(=O)C1(CCCc2ccccc2)CCN(C(=O)CCOC)CC1
    -13.4%, -9.7%
- CC(C)Oc1ccc(N2CC(C(=O)Nc3ccccc3C(=O)NC3CC3)CC2=O)cc1 (configuration not stated)
    -2.6%, -8.2%
- [O-]/C(=C(\C(=S)Nc1cccc2ccccc12)[n+]1ccccc1)c1ccc(Cl)s1
    -10.0%, -13.4%
- O=C(COc1ccccc1C(=O)NCc1ccncc1)Nc1ccc(Br)cc1
    -14.4%, -16.2%
- CC1CCCCC1NC(=O)/C(C#N)=C/c1ccc2c(c1)OCCO2 (configuration not stated)
    i, -19.8%
- Cc1cc(Cl)ccc1NNC(=O)c1cccs1
    -21.5%, -11.5%
- Cc1nc2ccc3nc(NC(=O)c4ccc5c(c4)OCCO5)sc3c2s1
    -4.3%&-13.9%, -3.9%&-10.1%
- CN(Cc1ccccc1)C(=O)c1cccc(NC(=O)Cc2cccc(NC(=O)C3CCN(C(=O)C4CCC4)CC3)c2)c1
    -13.2%, -9.3%
- COc1ccc(C(C)(C)C)cc1NC(=O)CCNC(=O)c1ccco1
    -4.0%, -7.7%
- NC(=O)CC(NC(=O)Cc1cccc2ccccc12)c1ccc(N2CCC(N3CCCC3)CC2)c([N+](=O)[O-])c1 (configuration not stated)
    i, -15.5%
- Cc1ccc(Cn2c(N3CCCCCC3)nc3c2c(=O)[nH]c(=O)n3C)cc1
    ., ?
- Cc1cccc(SCC(=O)Nc2ccc3c(c2)OCCO3)c1
    -6.9%, -13.9%
- COc1ccc(-c2ccc3c(N)c(C(=O)Nc4cc(F)ccc4C)sc3n2)cc1
    -17.3%, -11.2%
- CCC1(CC)NC(=O)N(CC(=O)OCc2nc3cc(C(=O)OC)ccc3c(=O)[nH]2)C1=O
    i, -2.5%

# In another format: entries from further up
canonical_smiles: C[C@]12c3[nH]c4ccc(Cl)cc4c3CCN1C(=O)[C@@H](CC(=O)NCc1ccco1)C[C@@H]2C(=O)N1CCOCC1
  VACV mCherry inh: i	VACV Venus inh: ?

canonical_smiles: CC(C)(C)n1nnnc1C(c1cccs1)N1CCN(Cc2ccc3c(c2)OCO3)CC1 (configuration not stated)
  VACV mCherry inh: -13.5%	VACV Venus inh: -6.6%

# Returning to the listing with the two entries that preceded the break.
# Each structure is followed by: VACV mCherry inh, VACV Venus inh
- COc1ccc(-c2ccc3c(N)c(C(=O)Nc4cc(F)ccc4C)sc3n2)cc1
    -17.3%, -11.2%
- CCC1(CC)NC(=O)N(CC(=O)OCc2nc3cc(C(=O)OC)ccc3c(=O)[nH]2)C1=O
    i, -2.5%
- O=C(NCCO)c1ccc(-c2cnc3cccnn23)cc1
    i, -8.9%
- O=C(Nc1ccccc1F)c1cnn2c1NC(=C1CC1)C=C2C(F)F
    i, -5.2%
- CC(C)[C@@H]1Cc2[nH]c(=S)[nH]c(=O)c2[C@H](CCc2ccccc2)O1
    -13.7%, -15.4%
- CN(C)c1ccc(NC(=S)NC23CC4CC(CC(C4)C2)C3)cc1
    ?, -13.0%
- O=C(c1ccc(Cl)cc1)c1cn(Cc2ccccc2)c2cc3c(cc2c1=O)OCCO3
    ?, ?
- O=C1COc2ccc(S(=O)(=O)NCc3ccccc3)cc2N1
    -11.8%, -0.5%
- Cc1cc(S(=O)(=O)Nc2cccnc2)c(C)s1
    -10.2%, -7.0%
- COC(=O)N/N=C(\C)c1ccc(OC(F)F)cc1
    -18.7%, -13.7%
- CC1(C)OC(=O)C2(Cc3ccc(Cl)cc3N3CCCCC32)C(=O)O1 (configuration not stated)
    -17.8%, -9.7%
- CCCNC(=S)N1CCCC(c2nc3ccccc3[nH]2)C1 (configuration not stated)
    -19.5%, -3.7%
- COc1cccc(NC(=O)c2ccc3[nH]c(C)cc(=O)c3c2)c1
    -6.6%, -4.4%
- Cc1nn(C)c(C)c1S(=O)(=O)N1CCCC(C(=O)NC2CCCCCC2)C1 (configuration not stated)
    1.8%, -8.7%
- Cc1c(NC(=S)NC(=O)c2ccco2)cccc1-c1nc2ncccc2o1
    i, 4.2%
- CC(C)(C)c1[nH]nc2c1C(c1ccccc1OC(=O)N1CCOCC1)C(C#N)=C(N)O2 (configuration not stated)
    i, -4.1%
- COc1cc(/C=N/NC(=O)c2ccc(C)nc2)cc([N+](=O)[O-])c1O
    -11.8%, -8.2%
- COc1ccc(CCN2C(=O)c3cccc4c(C(=O)N5CCCCC5)ccc(c34)C2=O)cc1OC
    -14.8%, -7.0%
- COc1ccc(NC(=O)c2cc(C3CCCCN3C(=O)c3ccc(NC(C)=O)cc3)on2)c(C)c1 (configuration not stated)
    -10.1%, -5.7%
- CC1CCN(C(=O)/C(=C\c2cccs2)NC(=O)c2ccccc2)CC1
    -19.3%, -1.6%
- CCCC(C)NC(=O)c1ccc(C2SCC(=O)N2Cc2ccco2)cc1 (configuration not stated)
    ., -20.6%
